Screening data (PubChem)
TsaE inh – qHTS Assay for Inhibitors of YjeE. purified YjeE, fluorescence polarisation of a bound ADP probe. Potency, µM. 71,000 compounds, 0.05% hits; active = well fitted falling curve; inconclusive = weaker or top-dose-only fall, or a rising curve; inactive = flat or poorly fitted curve;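 further: top concentration of the series not given in the record; excess ADP was the control for the full effect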
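Fluorescence polarization of a BODIPY Texas Red–ADP probe (2 uM) bound to purified YjeE (10 uM) was read after 15 min room-temperature incubation with compounds. Loss of polarization marks inhibitors; ADP serves as titrated control.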
PK Bst – Pyruvate Kinase; partly purified Bacillus stearothermophilus pyruvate kinase, luminescence ATP production; ribose 5-phosphate activator present at AC10; Potency, µM; 51,000 compounds, 1.2% hits; AID 361, 2006; in the data active means potency below about 11 µM; inconclusive means mostly about 12 µM to 25 µM; inactive means weaker than that;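 the screen sought inhibitors and activators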;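 further: potency means the concentration at half of the fitted maximal effect; scaled between full activation by ribose 5 phosphate and full inhibition by luteolin; about four in five hits inhibit and the cells do not say which; series up to 57 µM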
* marks the source's active call; other numbers are inactive results; i = inactive; u = inconclusive; x = no result given.

TsaE inh,PK Bst,Molecule
i,>57,O=C(CSc1nnc(-c2cccs2)n1-c1ccccc1)NCC1CCCO1 (stereo not drawn)
i,>57,Cc1ccc(-n2nnnc2SC(C)C(=O)Nc2ccc(Cl)cn2)cc1 (stereo not drawn)
i,>57,Cc1occc1-c1nnc(SCC(=O)NCCc2ccccc2)n1Cc1ccccc1
i,>57,CC(NC(=O)C1CC2CCCC(C1)C2=O)c1ccccc1 (stereo not drawn)
i,x,CCc1nc(SCc2ccc(C(=O)OC)o2)c2c(=O)n(C)c(=O)n(C)c2n1
i,>57,Cc1ccccc1Cn1c(=O)n(CCCC(=O)NCc2ccco2)c(=O)c2ccccc21
i,>57,O=S(=O)(Cc1ccc(Cl)cc1)Nc1ccc2c(c1)OCO2
i,>57,Cc1onc(-c2ccccc2Cl)c1C(=O)NCc1cccs1
i,>57,COc1ccc(N(C)S(=O)(=O)c2cccc(C(=O)Nc3ccc(-n4cnnn4)cc3)c2)cc1
i,>11,O=C1Cn2c(nc3ccccc32)-c2ccccc2N1
i,>57,Cc1ccccc1-c1coc2cc(O)ccc2c1=O
i,>57,CC(=O)OCCN(Cc1ccccc1)Cc1ccc2c(c1)OCO2
i,>57,O=C(O)CN(Cc1ccccc1)S(=O)(=O)c1ccc(F)cc1
i,>57,CCOC(=O)c1nn(-c2c(C)n(C)n(-c3ccccc3)c2=O)cc1O
i,x,CCOc1ccc(S(=O)(=O)N2CCN(S(=O)(=O)c3ccc(OCC)cc3)C(C)C2)cc1 (stereo not drawn)
i,x,CCC(=O)/C=C/C1C(C)=CCCC1(C)C (stereo not drawn)
i,>57,CCOc1ccccc1Oc1cn[nH]c1-c1ccc(OC)cc1O
i,x,COc1ccc(Oc2ncc3nc(-c4cc(F)cc(F)c4)c(=O)n(C4CC4)c3n2)cc1
i,x,COc1ccc(C(Cl)=C(c2ccc(OC)cc2)c2ccc(OC)cc2)cc1
i,>57,Cc1ccccc1Cn1ccc(NC(=O)c2nc3ncccn3n2)n1
i,>57,O=C(NCCCN1CCCCCC1)c1ccc(CS(=O)(=O)Cc2ccccc2F)o1
i,>57,Cc1c(Cl)cccc1NC(=O)CN1CCN(CCO)CC1
i,x,CCOC(=O)CN1CC23C=CC(O2)C(C(=O)NCCc2ccccc2)C3C1=O (stereo not drawn)
i,8.6*,c1ccc2c(c1)nc(Nc1ccc3c(c1)OCO3)c1nnnn12
i,>57,O=C(c1ccco1)N1CCN(C(=O)C2CCN(S(=O)(=O)Cc3ccccc3)CC2)CC1
i,>57,C=CCN(CC(=O)NCc1ccccc1)C(=O)c1csnn1
i,>57,COc1ccc(OCc2nnc(SC3CCOC3=O)n2-c2ccccc2)cc1 (stereo not drawn)
i,>57,CCOC(=O)c1cc2c(ccn2C)n1CC(=O)N1CCN(c2ccccc2)CC1
i,x,CC(C)OC(=O)c1c(F)c(F)c(N2CCOCC2)c(F)c1F
i,>57,COc1ccccc1-n1cnc2cc(C(=O)NCC3CCCO3)ccc21 (stereo not drawn)
i,>57,c1ccc(N2CCN(c3nnc(Cc4cccnc4)c4ccccc34)CC2)nc1
i,x,O=C(CSc1ncnc2ccccc12)Nc1ccc2c(c1)OCO2
i,5*,CCNc1nc(CC)nc2c1oc1ccccc12
i,i,CCOc1ccc(C(=O)N2CCc3cc(OC)c(OC)cc3C2)cc1OCC
x,>26,CCCCn1c2nc3ccccc3nc2c2c(=O)n(CC(C)C)cnc21
x,>26,Cc1nnc(C)n1/N=C/c1cccn1C
i,x,COc1cccc(CN2CCN(C(=O)c3ccco3)CC2)c1OC
i,>57,c1ccc(OCc2nn3c(Cn4nnc5ccccc54)nnc3s2)cc1
i,>57,CC(=O)Nc1ccc(S(=O)(=O)N2CCN(C34CC5CC(CC(C5)C3)C4)CC2)cc1
i,>57,Cc1oc(-c2ccccc2)cc1C(=O)Nc1cccc(C(=O)O)c1

Taken from the results shown for reference:
TsaE inh,PK Bst,Molecule
i,x,CCOC(=O)CN1CC23C=CC(O2)C(C(=O)NCCc2ccccc2)C3C1=O (stereo not drawn)
i,8.6*,c1ccc2c(c1)nc(Nc1ccc3c(c1)OCO3)c1nnnn12
i,>57,O=C(c1ccco1)N1CCN(C(=O)C2CCN(S(=O)(=O)Cc3ccccc3)CC2)CC1
i,>57,C=CCN(CC(=O)NCc1ccccc1)C(=O)c1csnn1
i,>57,COc1ccc(OCc2nnc(SC3CCOC3=O)n2-c2ccccc2)cc1 (stereo not drawn)
i,>57,CCOC(=O)c1cc2c(ccn2C)n1CC(=O)N1CCN(c2ccccc2)CC1
i,x,CC(C)OC(=O)c1c(F)c(F)c(N2CCOCC2)c(F)c1F
i,>57,COc1ccccc1-n1cnc2cc(C(=O)NCC3CCCO3)ccc21 (stereo not drawn)
i,>57,c1ccc(N2CCN(c3nnc(Cc4cccnc4)c4ccccc34)CC2)nc1
i,x,O=C(CSc1ncnc2ccccc12)Nc1ccc2c(c1)OCO2
i,5*,CCNc1nc(CC)nc2c1oc1ccccc12
i,i,CCOc1ccc(C(=O)N2CCc3cc(OC)c(OC)cc3C2)cc1OCC
x,>26,CCCCn1c2nc3ccccc3nc2c2c(=O)n(CC(C)C)cnc21
x,>26,Cc1nnc(C)n1/N=C/c1cccn1C
i,x,COc1cccc(CN2CCN(C(=O)c3ccco3)CC2)c1OC
i,>57,c1ccc(OCc2nn3c(Cn4nnc5ccccc54)nnc3s2)cc1
i,>57,CC(=O)Nc1ccc(S(=O)(=O)N2CCN(C34CC5CC(CC(C5)C3)C4)CC2)cc1
i,>57,Cc1oc(-c2ccccc2)cc1C(=O)Nc1cccc(C(=O)O)c1

Carrying on.
TsaE inh,PK Bst,Molecule
i,>57,O=C(O)Cc1coc(-c2ccc(F)cc2)n1
i,>57,COCCn1nnnc1C(c1cccc(OC)c1OC)N1CCN(C2CCCCC2)CC1 (stereo not drawn)
i,x,CC(C)n1c(-c2ccc(N(C)C)cc2)nc2ccccc21
i,>57,CC(C)CCNC(=O)CCCn1c(=O)[nH]c2ccc(Br)cc2c1=O
i,>57,CCOc1cc2c(cc1C(C)(C)C)NC(=O)CS2
i,>57,CCS(=O)(=O)N1CCC(C(=O)NCCCN2CCC(Cc3ccccc3)CC2)CC1
i,>57,O=C(Cn1c(NCCO)nc2ccccc21)c1ccco1
i,x,COC(=O)C1=C(C)N(C2CCCC2)C(=O)C1(NC(C)=O)C(F)(F)F (stereo not drawn)
i,>57,O=C1CCCC2=C1C(c1ccccc1O)C1=C(CCCC1=O)O2
i,>57,COc1ccc(NC(=O)Cc2ccc(Cl)cc2)cc1NC(=O)c1ccco1
i,>57,COc1ccc(Nc2nnc(Cc3ccc(Cl)cc3)c(=O)[nH]2)c(OC)c1
i,>57,O=C(NCc1ccccc1)NC1(C(=O)N2CCN(c3ccccc3)CC2)CCCCC1
i,x,CCOC(=O)c1ccccc1NC(=O)C1COc2ccccc2O1 (stereo not drawn)
i,>57,Cc1cc(C(=O)COC(=O)CCCN2C(=O)c3ccccc3C2=O)c(C)n1C
i,>57,Cc1c(-n2cc(C(=O)O)c(=O)c3cc(F)c(N4CCCC4)c(F)c32)c(=O)n(-c2ccccc2)n1C
i,x,Cc1noc(C)c1-c1cncnc1NC1CC1
i,x,Cc1c(NC(C)C)c(=O)n(-c2ccccc2)n1C
i,>57,CCCC1(c2ccccc2)NC(=O)N(CC(=O)c2[nH]c(C)c(C(=O)OCC)c2C)C1=O (stereo not drawn)
i,x,Cc1ccc(N2C(=O)c3oc4ccccc4c(=O)c3C2c2cccc(O)c2)nc1 (stereo not drawn)
i,x,O=c1[nH]c2ccc(Br)cc2c(-c2ccccc2)c1N1CCOCC1
i,>57,O=C(O)c1c[nH]c2ccc(S(=O)(=O)N3CCN(c4ccc(F)cc4)CC3)cc2c1=O
i,>57,c1cncc(-c2nnc(SCc3nc4ccccc4[nH]3)o2)c1
i,x,CC(C)NC[C@H](O)c1ccc(NS(C)(=O)=O)cc1
i,>57,COc1ccc(C(=O)NCc2cccnc2)cc1S(=O)(=O)N1CCOCC1
i,x,CCCCOc1ccc(-c2nc(-c3cccnc3)no2)cc1
i,>57,Cc1ccc(S(=O)(=O)NC(=O)NCc2ccccn2)cc1
i,>57,Cc1cc(=O)[nH]c(SCC(=O)Nc2cccc(C(F)(F)F)c2)n1
i,>57,CCN(CC)CCn1c2ccccc2c2nc(C)sc21
i,>57,O=c1cc(N2CCC3(CC2)OCCO3)[nH]c(=O)n1-c1ccc(Br)cc1
i,x,CN(C)c1ccc(C(=N)c2ccc(N(C)C)cc2)cc1
i,>57,COC(=O)c1ccccc1NC(=O)Cn1cc(Br)cn1
i,>57,O=C(Nc1nc2n(n1)C(c1ccccc1)CC(c1ccc(Cl)cc1)N2)c1ccco1 (stereo not drawn)
i,u,CCOC(=O)c1[nH]c2ccc(OCC)cc2c1NC(=O)CN1CCC2(CC1)OCCO2
i,>57,Cc1cc(Cl)ccc1NC(=O)CSc1nnc(-c2ccncc2)n1Cc1ccco1
i,>57,O=c1cc(O)c2c(=O)[nH]c(=O)n(-c3ccccc3)c2[nH]1
i,>57,O=C(COC(=O)c1ccccn1)Nc1nccs1
i,>57,COc1ccc(OCC(O)COc2ccc(C(=O)O)cc2)cc1 (stereo not drawn)
i,>57,COC(=O)COc1ccc(C(=O)OC)cc1
i,>57,Cc1c(C(=O)NC(C)C)oc2c1-c1[nH]ncc1CC2
i,>57,COCCCNC(=O)CCCn1c(=O)c2ccccc2n(CC(=O)Nc2c(C)cc(C)cc2C)c1=O
i,x,C[C@](O)(c1ccccc1)c1nccc2ccccc12
i,>57,CCNC(=O)NC(C(=O)OC)C12CC3CC(CC(C3)C1)C2 (stereo not drawn)
i,>57,C/C(Cl)=C\CNC(C)c1ccccc1 (stereo not drawn)
i,>57,S=c1oc(-c2ccncc2)nn1CCc1ccncc1
i,x,COc1ccc(C(=O)N2CCC3(CCCN(C(=O)NC(C)C)C3)CC2)cc1
i,x,CC(=O)Oc1ccccc1N1C(=O)c2ccc(C(=O)O)cc2C1=O
i,>11,COC(=O)C1=CN(C(C)C)C=C(C(=O)OC)C1c1cc2c(cc1Br)OCO2
i,>57,COc1ccc(CCNc2oc(COc3ccc(F)cc3)nc2C#N)cc1
i,x,Cc1ccccc1CN1C(=O)C(O)(CC(=O)c2ccncc2)c2ccccc21 (stereo not drawn)
i,>57,O=C(CSc1nnnn1-c1ccccc1)N1CCN(C(=O)c2ccco2)CC1
i,>57,Cc1ccc(-c2[nH]c(=O)n3ccncc23)s1
i,>57,c1ccc(N(c2ccccc2)c2nc(N3CCCC3)nc(-n3ccnc3)n2)cc1
i,>57,CCN(CC)S(=O)(=O)c1ccc(NC(=O)CN(c2cccc(F)c2)S(C)(=O)=O)cc1
i,>57,COc1cccc(NC(=O)NCCCN2CCN(c3ccc(F)cc3)CC2)c1
i,>57,COc1ccc(S(=O)(=O)Nc2ccccc2C(=O)OC2CCCN(C)C2)cc1OC (stereo not drawn)
i,>57,CN1CCN(Cc2c(C#N)c3ccccc3n2C)CC1

Continued:
TsaE inh,PK Bst,Molecule
i,>57,O=C(NCc1nnc(SCC(=O)N2CCCCCC2)o1)c1ccco1
i,>57,CC(C)OCCCN1C(=O)c2[nH]nc(-c3ccccc3O)c2C1c1cccc(Cl)c1 (stereo not drawn)
i,x,COc1ccccc1CN1CC[C@@]2(CCCN(C(=O)c3ccncc3)C2)C1
i,>57,O=C1c2oc3ccc(Br)cc3c(=O)c2C(c2cccc(F)c2)N1CCO (stereo not drawn)
x,>26,COc1ccc(CCN(C)CCCC(C#N)(c2cc(OC)c(OC)c(OC)c2)C(C)C)cc1OC (stereo not drawn)
i,>57,CCn1nc(NS(=O)(=O)c2ccccc2)c2cc3cccc(C)c3nc21
i,>57,O=C(OCCCCN1C(=O)c2ccccc2C1=O)c1n[nH]c2ccccc12
i,>57,CCCCN(C)C(=O)c1sc2ncn(CC)c(=O)c2c1C
i,x,COc1ccc(-c2nc(CSCC(=O)N3CCc4ccccc4C3)c(C)o2)cc1OC
i,>57,CCOc1ccc(S(=O)(=O)Nc2ccccc2C(=O)NCc2ccco2)cc1
i,>57,O=C(OCn1nnc2ccccc2c1=O)C1=COCCO1
i,>57,COc1ccccc1-n1c(CNC(=O)COc2ccccc2)n[nH]c1=S
i,x,CC(=NCCCNC1CCCCC1)C1=C(O)CC(C)(C)CC1=O
i,x,COc1ncc2nc(-c3cc(F)cc(F)c3)c(=O)n(CCC#N)c2n1
i,>57,CCCN1CCN(C(=O)CN2C(=O)CC(C)(C)S(=O)(=O)c3ccccc32)CC1
i,>57,CCOC(=O)C1=C(c2ccccc2)Nc2ncnn2C1c1cccc(OC)c1OC (stereo not drawn)
i,>57,CS(=O)(=O)N(CC(=O)Nc1cccnc1)c1ccc2c(c1)OCO2
i,x,COc1cc2c(cc1OC)-c1cc(NC3CCCCCCC3)nc(=O)n1CC2
i,>57,CCN(CC)S(=O)(=O)c1ccc(-c2nnc(SCC(=O)Nc3nc(C)cs3)o2)cc1
i,>57,Cc1cc(C(=O)OCC(=O)c2c(N)n(C)c(=O)n(C)c2=O)c(C)o1
i,>57,COc1ccccc1OCC(=O)O
i,x,CCc1nc(SCC(=O)Nc2ccc(C(=O)O)cc2)n[nH]1
i,>57,c1ccc(-c2nc3cnccn3c2Nc2ccc3c(c2)OCCO3)cc1
i,x,c1ccc(-n2nnc3ccccc32)nc1
i,>57,COc1ccc(S(=O)(=O)N2CCN(c3ncnc4c(-c5ccccc5)nsc34)CC2)cc1
i,x,Cc1ccc(C)c(N2CCN(C(=O)C3CCCN(S(=O)(=O)c4c(C)noc4C)C3)CC2)c1 (stereo not drawn)
i,>57,CN1CCN(Cc2nc3c(c(=O)n(C)c(=O)n3C)n2CCCc2ccccc2)CC1

These rows are one share of the data; count on the stated rates, not on these rows.
